Source: PubChem BioAssay (Southern Research Institute)
Mtb growth: Mycobacterium tuberculosis H37Rv growth inhibition, putative kinase inhibitor library, confirmatory dose response (AID 2842); M. tuberculosis H37Rv growth inhibition; higher % means a stronger effect; some inactives read as strong as hits; one-dose inhibition, % at 10 µg/mL; IC90 in µg/mL for titrated hits; 5.2% of 24,000 active;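 active = confirmed in a dose series; about a fifth of its hits are not listed in these tables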;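 note: bacteria incubated one week before Alamar blue readout; 0% = bacteria only wells and 100% = bacteria with high antibiotic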
* = called active by the depositor.

CC(C)(C)CC(=O)Nc1c(C(=O)Nc2ccc3c(c2)OCCO3)oc2ccccc12 was read as Mtb growth 57%.
Cc1c(OCC(=O)Nc2ccccc2)ccc2c(-c3ccccc3)cc(=O)oc12 was read as Mtb growth 3%.
`COc1cccc(-n2c(=O)[nH]c3c(C(N)=O)nc(-c4ccc(Cl)c(Cl)c4)nc32)c1` gave Mtb growth 6%.
Screening CSc1ccc(CC(=O)Nc2nnc(-c3ccc4c(c3)OCCO4)o2)cc1 returned Mtb growth -3%.
Screening Cn1c(=O)c2c(nc(N/N=C/c3ccncc3)n2CCc2ccccc2)n(C)c1=O returned Mtb growth -2%.
`COc1ccccc1-c1cnn2c(Nc3cccc(Cl)c3)cc(C)nc12` gave Mtb growth 1.7µg/mL*.
For O=C(CC1Sc2ccccc2NC1=O)Nc1cccc(C(=O)O)c1 (stereo not drawn) the results were Mtb growth -18%.
CCCCOc1ccc(C(=O)Nc2scc3c(C(=O)OCC)nn(-c4ccc(C)cc4)c(=O)c23)cc1 was read as Mtb growth -3%.
CCOC(=O)N1CCc2c(sc(NC(=O)c3ccc(Cl)s3)c2C#N)C1 was read as Mtb growth -1%.
COc1ccc(Nc2nc3ccc(F)cc3s2)cc1 was read as Mtb growth 10%.
`Cc1cccc(CSc2nc(=O)[nH]c3c2CCC3)c1` gave Mtb growth -13%.
Screening O=C(Cc1cc(=O)[nH]c(=O)[nH]1)N1CCC(Cc2ccccc2)CC1 returned Mtb growth 18%.
For COc1cc2c3nnc(-c4ccc(F)cc4)c-3cn(Cc3ccc(C)cc3)c2cc1OC the results were Mtb growth 9%.
CCCC(=O)Nc1c(C(=O)Nc2ccc(OC)cc2OC)oc2ccccc12 was read as Mtb growth 3%.
Screening COC(=O)Cn1c(=O)c2c(nc3n(-c4ccccc4F)c(C)cn23)n(C)c1=O returned Mtb growth -6%.
For N=c1oc2c3c4c(cc2cc1C(=O)Nc1cccc(Cl)c1Cl)CCCN4CCC3 the results were Mtb growth 4%.
`O=C(Nc1ccccc1Oc1ccccc1)c1ccc2ncsc2c1` gave Mtb growth 3%.
Cc1c(C)n2c(SCC(=O)Nc3ccc(C(N)=O)cc3)nnc2[nH]c1=O was read as Mtb growth 2%.
For CCS(=O)(=O)c1cccc(C(=O)Nc2nc3c(cc4c5c(cccc53)CC4)s2)c1 the results were Mtb growth -1%.
`N#Cc1ccc(C(=O)Nc2nnc(-c3ccc(F)cc3)o2)cc1` gave Mtb growth 83%.

The final 4 compounds of the part above lead into the next:
`O=C(Nc1ccccc1Oc1ccccc1)c1ccc2ncsc2c1` gave Mtb growth 3%.
Cc1c(C)n2c(SCC(=O)Nc3ccc(C(N)=O)cc3)nnc2[nH]c1=O was read as Mtb growth 2%.
For CCS(=O)(=O)c1cccc(C(=O)Nc2nc3c(cc4c5c(cccc53)CC4)s2)c1 the results were Mtb growth -1%.
`N#Cc1ccc(C(=O)Nc2nnc(-c3ccc(F)cc3)o2)cc1` gave Mtb growth 83%.
For CCc1nnc(NC(=O)CSc2nc3c(c(=O)n2-c2ccc(F)cc2)SCC3)s1 the results were Mtb growth 1%.
For O=C(CSc1nnnn1-c1ccccc1)NCCc1ccc2c(c1)OCCO2 the results were Mtb growth -7%.
O=C(/C=C/c1ccc(-c2cccc([N+](=O)[O-])c2)o1)Nc1nccs1 was read as Mtb growth 4%.
For COc1cccc2sc(NC(=O)c3ccc(Cl)cc3Cl)nc12 the results were Mtb growth 18%.
`COc1cccc(NC(=O)Cn2cc(C(=O)c3ccc(Cl)cc3)c(=O)c3cc4c(cc32)OCCO4)c1` gave Mtb growth 33%.
CCOC(=O)c1c(NC(=S)Nc2c(C)n(C)n(-c3ccccc3)c2=O)sc2c1CCCC2 was read as Mtb growth -2%.
Screening Cc1ccc(Nc2nc(Nc3ccc(F)cc3)nc3nccnc23)cc1 returned Mtb growth 7%.
For O=C(Nc1c(C(=O)Nc2ccc([N+](=O)[O-])cc2)oc2ccccc12)c1cc(Br)ccc1Cl the results were Mtb growth 5%.
For CC(C)N1CCc2c(sc(NC(=O)c3cc4ccccc4oc3=O)c2C(N)=O)C1 the results were Mtb growth 3%.
COc1ccc(S(=O)(=O)Nc2cc3c4c(c2)CCC(=O)N4CCC3)cc1OC was read as Mtb growth 5%.
For Cc1ccc(NC(=O)c2oc3ccccc3c2NC(=O)c2ccccc2C(F)(F)F)cc1 the results were Mtb growth 4%.
`COc1ccc(C(=O)Nc2nc(CC(=O)NCc3cccnc3)cs2)cc1` gave Mtb growth 2%.
Screening CC1(C)COc2ccc(NC(=O)COc3ccccc3)cc2NC1=O returned Mtb growth -1%.
For Cc1ccc(-n2c(SCC(=O)NCc3ccc(F)cc3)nc3c(c2=O)SCC3)cc1 the results were Mtb growth 10%.
`CN1CCN(Cc2c(O)ccc3c2O/C(=C\c2ccc(Cl)cc2)C3=O)CC1` gave Mtb growth 24%.
Screening CCOc1ccc(NC(=O)CSc2nc3c([nH]c4ccccc43)c(=O)n2-c2ccc(Cl)cc2)cc1 returned Mtb growth 50%.
Screening COc1ccc2cc(C(=O)Nc3ccccc3)c(=Nc3ccc(C#N)cc3)oc2c1 returned Mtb growth 10%.
O=C(Nc1ccc(F)c(F)c1)c1oc2ccccc2c1NC(=O)c1c(F)cccc1F was read as Mtb growth -6%.
O=C(Nc1ccc2c(c1)C(=O)NC2=O)c1cccc(Cl)c1 was read as Mtb growth -10%.
`O=C(CC1CCS(=O)(=O)C1)Nc1nc(-c2ccc([N+](=O)[O-])cc2)cs1` (stereo not drawn) gave Mtb growth -5%.

Entries from the list above with an NH in an aromatic ring (5):
`COc1cccc(-n2c(=O)[nH]c3c(C(N)=O)nc(-c4ccc(Cl)c(Cl)c4)nc32)c1` gave Mtb growth 6%.
`Cc1cccc(CSc2nc(=O)[nH]c3c2CCC3)c1` gave Mtb growth -13%.
Screening O=C(Cc1cc(=O)[nH]c(=O)[nH]1)N1CCC(Cc2ccccc2)CC1 returned Mtb growth 18%.
Cc1c(C)n2c(SCC(=O)Nc3ccc(C(N)=O)cc3)nnc2[nH]c1=O was read as Mtb growth 2%.
Screening CCOc1ccc(NC(=O)CSc2nc3c([nH]c4ccccc43)c(=O)n2-c2ccc(Cl)cc2)cc1 returned Mtb growth 50%.

Other compounds follow.
COc1cc(NS(=O)(=O)c2ccc(NC(=O)/C=C/c3ccccc3)cc2)nc(OC)n1 was read as Mtb growth 5%.
`CC(C)CCn1c(=S)[nH]c2c1c(=O)[nH]c(=O)n2C` gave Mtb growth 4%.
For CS(=O)(=O)Nc1cccc(C2=NN(c3nc(-c4ccccc4)c4cc(Cl)ccc4n3)C(c3ccccc3F)C2)c1 (stereo not drawn) the results were Mtb growth 6.7µg/mL*.
Screening Cc1cccc(CC(=O)NCCc2cc3cc(C)c(C)cc3[nH]c2=O)c1 returned Mtb growth 17%.
Screening COc1ccc2c(c1)c(=O)c(C(=O)c1ccccc1)cn2CC(=O)Nc1ccc(F)cc1 returned Mtb growth 9%.
O=[N+]([O-])c1cccc(-c2ccc3nnc(SCc4ccccc4)n3n2)c1 was read as Mtb growth -13%.
Screening CC(=O)CSc1nc2c(c(=O)n(C)c(=O)n2C)n1Cc1cccc(C)c1 returned Mtb growth 8%.
For Cc1cc2cc(CCNC(=O)c3ccccc3C)c(=O)[nH]c2cc1C the results were Mtb growth -1%.
`Cc1ccc(-c2nnc3c4cc5c(cc4n(Cc4cccc(C)c4)cc2-3)OCCO5)cc1` gave Mtb growth 5.8µg/mL*.
For CC(O)Cn1c(N/N=C/c2ccc(O)cc2)nc2c1c(=O)[nH]c(=O)n2C (stereo not drawn) the results were Mtb growth -9%.
For N=C1SC(c2ccccc2)C(=O)N1c1nccs1 (stereo not drawn) the results were Mtb growth 30µg/mL*.
For CC(=O)Nc1ccc(N=Cc2ccccc2OC(=O)c2cccnc2)cc1 the results were Mtb growth 0%.
Screening CC(=O)c1sc(NC(=O)c2ccc3ncsc3c2)nc1C returned Mtb growth 4%.
`Cc1ccc(-c2[nH]c3ccccc3c2SCCNC(=O)c2cc3ccccc3oc2=O)cc1` gave Mtb growth 4µg/mL*.
COc1ccc(/C=C/C(=O)Nc2ccc(S(=O)(=O)N3CCCC3)cc2)cc1 was read as Mtb growth 5%.
For CC1CCc2nc(NC(=O)c3cccc(NS(=O)(=O)c4ccc(F)cc4)c3)sc2C1 (stereo not drawn) the results were Mtb growth -2%.
O=c1[nH]c2c(s1)C(c1ccc(O)cc1)C1C3CCC(C3)C1S2 (stereo not drawn) was read as Mtb growth 5%.
Cc1nc2c(ccc3nc(NC(=O)c4cccc(Oc5ccccc5)c4)sc32)s1 was read as Mtb growth -3%.
Screening CCOC(=O)CNC(=O)CSc1nc(N)c(NC(=O)c2ccc(OCC)cc2)c(=O)[nH]1 returned Mtb growth 6%.
For CCCCCOc1ccc(C(=O)Nc2nnc(-c3ccccn3)o2)cc1 the results were Mtb growth 2.1µg/mL*.

3 structures from above, arranged by heavy-atom count, high to low:
`Cc1ccc(-c2[nH]c3ccccc3c2SCCNC(=O)c2cc3ccccc3oc2=O)cc1` gave Mtb growth 4µg/mL*.
Cc1nc2c(ccc3nc(NC(=O)c4cccc(Oc5ccccc5)c4)sc32)s1 was read as Mtb growth -3%.
COc1ccc(/C=C/C(=O)Nc2ccc(S(=O)(=O)N3CCCC3)cc2)cc1 was read as Mtb growth 5%.

(next part)
`O=C(Nc1ncc(Cc2cccc3ccccc23)s1)c1ccco1` gave Mtb growth 2%.
For CC(=O)c1ccc(Nc2nc(N3CCOCC3)nc(N3CCOCC3)n2)cc1 the results were Mtb growth -12%.
`CN(C)S(=O)(=O)c1ccc(C(=O)Nc2ccc(Br)cc2)cc1` gave Mtb growth 5%.
Screening CCOC(=O)c1oc2ccccc2c1NC(=O)CSCc1ccccc1 returned Mtb growth 12%.
Screening CCOC(=O)c1c(NC(=O)CSc2ncnc3ccccc23)sc2c1CCCCC2 returned Mtb growth -3%.
Screening CCOC(=O)C(C)Sc1ncnc2nc[nH]c12 (stereo not drawn) returned Mtb growth 1%.
COCCNC(=O)c1c(O)nc2sccn2c1=O was read as Mtb growth -2%.
For CC(=O)C(Sc1ccc2nnc(-c3ccc(F)cc3)n2n1)C(C)=O the results were Mtb growth -14%.
For CCCCCCn1c(SCCCO)nc2c1c(=O)[nH]c(=O)n2C the results were Mtb growth 24%.
O=C1NCCc2c(OCc3cccc(Cl)c3)cccc21 was read as Mtb growth -2%.
CCCC(=O)Nc1nnc(-c2ccc(C)cc2C)o1 was read as Mtb growth 2.2µg/mL*.
COC(CNC(=O)c1c(O)nc2ccccn2c1=O)OC was read as Mtb growth -6%.
CCOC(=O)CSC(C)C(=O)Nc1nnc(-c2ccc(OC)cc2OC)s1 (stereo not drawn) was read as Mtb growth 7%.
CC(C)(C)c1ccc(C(=O)N2CCN(c3ccc(N4CCOCC4)nn3)CC2)cc1 was read as Mtb growth -8%.
`CC1C(=O)N2CCCc3cc(NC(=O)c4ccc(-c5ccccc5)cc4)cc1c32` (stereo not drawn) gave Mtb growth 70%.
Screening O=C(Nc1nc2ccc(Br)cc2s1)c1ccc(Oc2ccccc2)cc1 returned Mtb growth 6%.
Cc1cc(SCc2ccccc2Cl)nc(=O)[nH]1 was read as Mtb growth -22%.
Cc1ccc(-n2ncc3c(NNC(=O)c4ccc(Cl)cc4Cl)ncnc32)cc1 was read as Mtb growth 12µg/mL*.
For CN(C1CCCCC1)S(=O)(=O)c1ccc(C(=O)Nc2nc3c(ccc4ccccc43)s2)cc1 the results were Mtb growth 1%.
`CC(C)c1nnc(NC(=O)COc2ccc(Cl)cc2)s1` gave Mtb growth -12%.
For Cc1cccc2nc(CSc3nncn3-c3ccccc3)cn12 the results were Mtb growth -5%.
Cc1ccc(C)c(NC(=O)Cn2cnc3c(cnn3-c3ccc(F)cc3)c2=O)c1 was read as Mtb growth 1%.
CCSc1nc(N)c(NC(=O)c2ccco2)c(=O)[nH]1 was read as Mtb growth -3%.
For CCOC(=O)c1nn(-c2ccccc2)c(=O)c2c(NC(=O)c3cc(OC)c(OC)c(OC)c3)scc12 the results were Mtb growth -7%.
CC1CCCN(S(=O)(=O)c2ccc(C(=O)Nc3nc(-c4ccccc4)cs3)cc2)C1 (stereo not drawn) was read as Mtb growth 6%.
Screening CC(=O)N1CCc2c(sc(NC(=O)c3ccc(Cl)s3)c2C(N)=O)C1 returned Mtb growth 6%.
O=C(CSc1nc(=O)n(CC2CCCO2)c2c1CCCC2)Nc1ccc2c(c1)OCO2 (stereo not drawn) was read as Mtb growth 9%.
Screening CCOc1ccc(-c2csc(NC(=O)c3ccc4c(c3)OCCO4)n2)cc1 returned Mtb growth -2%.
Cc1cccc(NC(=O)CCn2c(=O)oc3ccccc32)c1 was read as Mtb growth 14%.
COc1ccc(C(=O)c2sc3nc4c(c(-c5ccco5)c3c2N)CCCCC4)cc1 was read as Mtb growth -4%.
`Cc1cccc(NC(=O)c2sc3nc4c(c(-c5cccs5)c3c2N)CCCCC4)c1` gave Mtb growth 45%.
Screening O=c1[nH]c(CSc2nnc(-c3ccccc3)o2)nc2ccccc12 returned Mtb growth -23%.
`CC1=NN(Cc2ccc(F)cc2)c2nc3c(c(=O)n(Cc4ccc(F)cc4)c(=O)n3C)n2C1` gave Mtb growth -9%.
Screening c1ccc(Cn2cc3c(-c4ccccc4)nnc-3c3cc4c(cc32)OCO4)cc1 returned Mtb growth 11%.
Screening CC(C)Cc1nc(C(N)=O)c2[nH]c(=O)n(-c3ccccc3)c2n1 returned Mtb growth -11%.
For O=C(Nc1nc2c(cc3c4c(cccc42)CC3)s1)c1ccc(S(=O)(=O)N2CCCc3ccccc32)cc1 the results were Mtb growth -1%.
O=C(Cn1ccn(-c2cccc3ccccc23)c(=O)c1=O)NCc1ccccc1 was read as Mtb growth -1%.
Screening COc1ccc(/C=C/C(=O)Nc2nnc(-c3ccc(F)cc3)s2)cc1OC returned Mtb growth -2%.

By substructure, those above containing bromine.
For O=C(Nc1c(C(=O)Nc2ccc([N+](=O)[O-])cc2)oc2ccccc12)c1cc(Br)ccc1Cl the results were Mtb growth 5%.
`CN(C)S(=O)(=O)c1ccc(C(=O)Nc2ccc(Br)cc2)cc1` gave Mtb growth 5%.
Screening O=C(Nc1nc2ccc(Br)cc2s1)c1ccc(Oc2ccccc2)cc1 returned Mtb growth 6%.

Only part of the results is shown (hit frequency here may not be typical).
